# Assay outcomes deposited in PubChem by several laboratories.
# UCH37 inh: inhibitors of human UCH37 deubiquitinase, primary screen, biochemical, Ub-AMC cleavage, fluorescence | Ubiquitin carboxyl-terminal hydrolase isozyme L5 (Homo sapiens), Q9Y5K5 | purified proteasome/UCH37 | inhibition, % (concentration not given with the values) | actives 0.33% (n = 330,000) | AID 588478, 2011;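 active = mean of two replicates above 20%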;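 also: 0% = compound-free wells with enzyme and 100% = wells lacking proteasome; stock transfer was 100 nL into about 20 µL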
# Target sequence (Q9Y5K5 whole entry, looked up): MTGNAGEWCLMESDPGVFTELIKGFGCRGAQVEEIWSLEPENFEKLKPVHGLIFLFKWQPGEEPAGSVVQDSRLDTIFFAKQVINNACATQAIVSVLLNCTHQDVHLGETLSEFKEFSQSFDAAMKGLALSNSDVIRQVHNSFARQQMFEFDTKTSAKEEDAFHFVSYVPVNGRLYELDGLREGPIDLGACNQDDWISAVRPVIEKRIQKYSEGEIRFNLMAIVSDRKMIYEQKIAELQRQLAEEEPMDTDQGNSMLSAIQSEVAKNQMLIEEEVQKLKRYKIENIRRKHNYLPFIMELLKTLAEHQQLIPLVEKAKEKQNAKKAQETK
#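 System: Proteasome-associated human UCH37 deubiquitinase; Input: 0.15 nM proteasome in added enzyme buffer; Also added: Ub-AMC substrate from 1 µM stock; Incubation: 30 min compound-proteasome preincubation then 25 min substrate reaction, room temperature; Detection: fluorescence, ex 355 nm, em 460 nm; Read-out: % inhibition of Ub-AMC cleavage fluorescence; Benchmarks: no-proteasome and no-compound wells.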
# LANA-H2B inh: blockers of LANA interaction with H2A/H2B – biochemical, FP readout, HTS, primary screen | Protein LANA1 (Human herpesvirus 8 type P (isolate GK18)), Q9QR71 | cell-free LANA-H2A/H2B peptide, fluorescence polarization | inhibition, % (test concentration not listed) | actives 0.6% (n = 320,000) | AID 2629, 2010; in the data active = inhibition mostly above about 10%, no sharp cut-off; inactive = mostly below about 6.7%;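 also: stock transfer was 7.5 nL into about 10 µL; 0% = median of vehicle wells and 100% = median of positive control wells; one replicate is shown; the record names a cut of 25% in any replicate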
# B2AR ag: beta2AR agonists driving receptor internalization, primary screen, cell-based, FAP fluorogen, flow cytometry; Beta-2 adrenergic receptor (Homo sapiens), P07550; Am2.2-beta2AR cells; reference of the scale not given here; response, % (no concentration beside the values); actives 0.43% (n = 340,000); AID 504454, 2011;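 active = response above a set limit, near 3 SD of response in nonfluorescent compounds, cut at about 42% in these data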;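 also: stock transfer was 100 nL into about 11 µL; a reference agonist was the positive control; negative values mostly stem from fluorescent compounds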
# Target sequence (P07550 whole entry, looked up): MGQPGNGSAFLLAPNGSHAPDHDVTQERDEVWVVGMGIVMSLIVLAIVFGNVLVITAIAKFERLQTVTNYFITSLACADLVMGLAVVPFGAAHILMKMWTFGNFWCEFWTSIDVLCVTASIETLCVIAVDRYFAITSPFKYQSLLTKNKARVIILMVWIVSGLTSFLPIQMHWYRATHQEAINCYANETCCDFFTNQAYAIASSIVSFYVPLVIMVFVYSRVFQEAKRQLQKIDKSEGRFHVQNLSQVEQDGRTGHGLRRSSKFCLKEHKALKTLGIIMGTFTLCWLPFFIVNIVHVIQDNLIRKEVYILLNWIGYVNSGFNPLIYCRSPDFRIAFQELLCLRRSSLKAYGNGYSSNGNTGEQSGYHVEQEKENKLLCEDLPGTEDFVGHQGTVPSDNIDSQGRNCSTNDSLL
# Vif A3G: inhibitors of Vif binding to APOBEC3G peptide, primary screen, biochemical, TR-FRET, GST-Vif 1-94, biotin-A3G peptide, dose response retest (AID 1117319); Virion infectivity factor (Human immunodeficiency virus type 1 group M subtype B (isolate …; TR-FRET GST-Vif / biotin-A3G peptide binding; higher % means a stronger effect; test concentration not given here; strong numbers were not always called active; one-dose inhibition, %; IC50 in µM for titrated hits; actives 0.57% (n = 260,000);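 active = above the screen mean plus three standard deviations and confirmed in dose response; inconclusive = results disagree or hit not tested in dose response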;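 also: Vif residues 1-94 fused to GST binding biotinylated APOBEC3G peptide 110-148; 0% = full assay without inhibitor and 100% = GST in place of GST-Vif; retest series ran down from 100 µM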
# Ecoli growth: E. coli growth inhibition, primary screen, OD600; OD600 absorbance (concentration not given with the values); Escherichia coli growth, 23 h; stronger effect = lower value; AID 1053175, 2014; actives 0.21% (n = 330,000);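 active = OD600 absorbance below the run mean of sample wells minus 3.6 SD, in any replicate, cut at about 0.56 in these data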;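 also: stock transfer was 300 nL into about 60 µL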
# HNF4A DNA FP: change in binding of human HNF4A to DNA, primary screen, biochemical, fluorescence polarization, FITC-DNA; Hepatocyte nuclear factor 4-alpha (Homo sapiens), P41235; 1 h; activity change, % at 10 µM; actives 0.3% (n = 360,000); AID 1224865, 2016; in the data active = activity change above about 30%, passing the limit was not always enough;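 also: controls were the assay level and a saturating level of protein; the project sought stronger binding though the title names inhibitors; some compounds called inactive have numbers as strong as hits; positive values seem to mean higher polarization but the record does not say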
# Bfl-1 A1 inh: caspase 3/7 activation in MEF A1-2A-BIM cells, primary screen, A1 inhibitor project, cell-based, luminescence, HTS. Caspase-Glo 3/7 luminescence, 3 h; percent of clofoctol response, vehicle zero. caspase activation, % (no concentration beside the values). actives 0.066% (n = 330,000);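 active = over half of replicate activation scores above 10%, or exactly half above 10 with the replicate mean above 10; inconclusive = replicate mean below 10 yet half the replicates above 10; inactive = over half of replicates below 10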;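 also: wells of about 30 µL received 50 nL stock; many hits fall short of the cut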
# An asterisk follows results filed as active; i = inactive; ? = inconclusive; . = no result given; & = joins results of further samples.
SMILES,UCH37 inh,LANA-H2B inh,B2AR ag,Vif A3G,Ecoli growth,HNF4A DNA FP,Bfl-1 A1 inh
O=C(NCc1cccs1)C1CCCN1C(=O)NC1CCCCC1 (stereo not drawn),2.6,0.4,-6,22%,0.73,-0.4,-0.8
COc1ccc(C(=O)NNC(=O)Cc2ccc(Cl)cc2)cc1,-1.4,3.0,-1,.,0.64,-2.0,0.7
O=C(CSc1nccn1Cc1ccccc1)Nc1nccs1,1.4,-1.6,-11,77%,0.72,1.6,0.0
CCOc1ccccc1C(=O)NCC(=O)NCC1CCCCC1,1.0,2.4,2,?,0.71,-3.0,0.1
O=C1/C(=C/c2ccc(N3CCOCC3)o2)SC(=Nc2ccccc2)N1CCc1c[nH]c2ccccc12,11,-8.7,i,31%,0.71,89,?
CC(=O)Nc1ccc(S(=O)(=O)N[C@H](C(=O)O)C(C)C)cc1,4.6,-2.6,-7,0%,0.76,2.6,1.2
COc1cc(C(=O)N2CCN(C(=O)CC(C)C)CC2)cc(OC)c1OC,1.4,-2.3,6,2%,0.66,2.9,-0.3
COc1ccc2cc(C3(C)NC(=O)N(CC(=O)NCc4ccco4)C3=O)ccc2c1 (stereo not drawn),2.0,-0.5,1,-2%,0.64,-1.2,0.0
C=CCn1c(SCC(=O)NC2CCCCC2)nnc1C1CCCCC1,3.2,-6.6,-5,2%,0.71,-1.7,0.2
CN(C)S(=O)(=O)N(CC(=O)N1CCN(Cc2ccccc2)CC1)c1ccccc1,2.0,9.1,-4,4%,0.67,0.9,0.8
CN(C)C(=O)NC(Nc1cccc([N+](=O)[O-])c1)C(Cl)(Cl)Cl (stereo not drawn),3.8,2.8,1,26%,0.69,-0.3,0.9
CCc1ccc(OCc2nnc(SCc3ccc(C(=O)O)cc3)o2)cc1,2.0,4.8,-1,-1%,0.66,0.2,-0.6
CCOc1ccc(CCNC(=O)c2ccc(N3CCCC3=O)cc2)cc1OCC,1.3,-0.8,0,-4%,0.69,0.8,0.3
C=CCn1cc(C(=O)NCCCOC)c(=O)c2cc(S(=O)(=O)N(CC)CC)ccc21,5.8,0.4,-6,-4%,0.74,-1.2,1.3
CC(=O)N1CCC2(CC1)CC(=O)c1cc(Cl)ccc1O2,-19,1.8,-2,.,0.7,-3.9,0.4
COc1ccc(OC)c(/C=N/NC(=O)c2cc(-c3ccc(C)o3)nc3ccccc23)c1,.,.,4,0%,.,-2.8,0.2
Cc1cc(C)cc(OCCCCn2cncn2)c1,0.8,-9.3,-9,.,0.67,2.0,-0.7
Cc1cc(CNC(=O)COc2ccc(C)c(C)c2)c2ccccc2n1,1.1,-0.4,-10,3%,0.7,2.2,0.4
COc1ccc(CNC(=O)c2cc(C)nn2-c2ccccc2)cc1,0.3,2.5,-5,?,0.71,-3.1,0.4
c1cnc2c(c1)ncc1cscc12,-14,3.0,3,.,0.68,3.1,0.1

# Complete entries, looked up by structure.
# Record of CCOc1ccc(CCNC(=O)c2ccc(N3CCCC3=O)cc2)cc1OCC → UCH37 inh: 1.3; LANA-H2B inh: -0.8; B2AR ag: 0; Vif A3G: -4%; Ecoli growth: 0.69; HNF4A DNA FP: 0.8; Bfl-1 A1 inh: 0.3
# Record of CN(C)C(=O)NC(Nc1cccc([N+](=O)[O-])c1)C(Cl)(Cl)Cl (stereo not drawn) → UCH37 inh: 3.8; LANA-H2B inh: 2.8; B2AR ag: 1; Vif A3G: 26%; Ecoli growth: 0.69; HNF4A DNA FP: -0.3; Bfl-1 A1 inh: 0.9

# Further records
SMILES,UCH37 inh,LANA-H2B inh,B2AR ag,Vif A3G,Ecoli growth,HNF4A DNA FP,Bfl-1 A1 inh
CCOC(=O)CC(=O)CSC1=C(C#N)C(c2ccccc2OC)CC(=O)N1 (stereo not drawn),-0.3,7.1,1,1%,0.74,19,-0.5
COc1ccccc1-n1c(C)nnc1SCC(N)=O,0.0,-2.5,2,-2%,0.71,3.1,-0.8
CCc1ccc(NS(=O)(=O)c2ccc(OC)c3ncccc23)cc1,1.2,9.9,-21,.,0.74,-0.4,-0.6
CSc1cccc(NC(=O)CNC(=O)C2CCCCC2)c1,-0.8,3.1,-5,.,0.7,1.0,1.3
CCC(C)(C)C1CCC2(CC1)NC(=O)N(CC(=O)NCCc1ccc(OC)c(OC)c1)C2=O (stereo not drawn),2.6,2.7,-3,.,0.64,-0.6,0.5
CCCS(=O)(=O)N1CCN(c2ccccn2)CC1,0.3,0.5,-9,4%,0.64,-2.1,0.2
CN(C)c1ccc(/C(=N\O)C(F)(F)F)cc1,.,-5.1,10,0%,.,3.8,0.0
CCNS(=O)(=O)c1ccc2c(c1)NCC2,2.2,5.0,0,.,0.63,0.6,0.4
CC(=O)/C(N=Nc1ccc(OC(F)(F)F)cc1)=C(\C)O,7.1,7.8,-1,.,0.65,1.3,-3.3
O=C(Nc1ccc(F)cc1)C1=CC(=O)N2CCN=C2S1,.,-9.4,.,0%,.,.,0.3
COc1ccc(-c2nc(CS(=O)(=O)CC(=O)NCc3cccc(OC)c3OC)c(C)o2)cc1,2.5,3.7,-7,.,0.75,-1.2,0.3
NC(=O)C1CCN(C(=O)C2CC(=O)N(c3ccc(F)cc3)C2)CC1 (stereo not drawn),1.5,4.7,2,.,0.65,2.1,-0.1
CC1(c2ccccc2)C(C#N)C(=O)NC(=O)C1C#N (stereo not drawn),5.4,.,-1,2%,0.7,2.1,.
COc1ccc(C(C)=O)cc1CSc1nc(C)cc(C)n1,-2.4,-7.1,-15,-10%,0.71,4.7,0.7
N#CC1=C(N)Oc2n[nH]c(CSc3ccccc3)c2C12C(=O)Nc1ccccc12 (stereo not drawn),1.6,-1.0,-4,-2%,0.68,-2.3,0.6
COCC(=O)N(Cc1cc2ccc(C)c(C)c2n2nnnc12)C1CCCC1,2.3,2.2,8,-11%,0.63,2.1,0.2
CC(N=C1NC(C)(C)Cc2ccccc21)C(=O)O (stereo not drawn),6.2,11,-5,-6%,0.68,2.2,-0.2
O=Cc1c(NCCN2CCOCC2)c2ccccc2[nH]c1=O,1.1,-3.5,1,0%,0.7,2.2,-0.2
Cc1ccc(NC(=O)CCC(=O)NNS(=O)(=O)c2ccc(Cl)cc2)cc1C,5.4,-0.4,3,.,0.73,4.1,0.1
COc1ccc(NC(=O)c2nc3nccc(C)n3n2)cn1,0.8,2.8,-10,?,0.74,-2.1,0.0
O=C1Nc2cccnc2N(C(=O)CCl)c2ccccc21,1.9,1.1,-5,.,0.63,2.8,0.8
CCn1c(-c2ccc(C)cc2)nn(CC(=O)NCCc2ccccc2)c1=S,0.3,1.4,-8,6%,0.65,5.2,0.1
O=C(NCCCCc1ccccc1)c1ccc(Br)cc1,0.1,-7.5,-13,.,0.64,-2.4,0.7
Cc1ccc(NC(=O)Nc2cnccn2)cc1C,2.7,4.6,-1,?,0.7,2.6,-1.3
CC(C)N(CCNC(=O)c1cn(C)c2ccc(S(=O)(=O)N(C)C)cc2c1=O)Cc1ccccc1,2.2,-0.4,2,-2%,0.72,0.1,0.7
CCC(CCC(=O)Nc1cccc(C(=O)O)c1)C(=O)O (stereo not drawn),-0.5,-5.2,3,0%,0.73,4.5,2.0
O=C(O)c1nn(CC(=O)N2CCN(c3ccccc3)CC2)c(=O)c2ccccc12,0.8,0.6,2,8%,0.7,-2.4,0.8
C=CCNC(=O)c1nn2cccnc2c1Cl,1.0,-0.2,-5,-1%,0.76,-1.6,-0.6
COc1cc(-c2nnc(COc3ccc4ccccc4c3)o2)cc(OC)c1OC,-1.0,4.6,-2,-2%,0.68,-0.6,0.8
O=C(Nc1cccnc1)c1ccccc1NS(=O)(=O)c1ccc(F)cc1,-6.7,-4.8,3,5%,0.72,0.8,0.1
CSc1nc(N)nc2c1ncn2CC(=O)NCC(c1ccccc1)c1ccccc1,3.3,.,-3,6%,0.7,-2.4,.
C/C(=N\OC(=O)NC1CCCCC1)c1sc(-c2ccccc2)nc1C,.,-1.1,13,-6%,.,1.3,-0.2
CC(=O)OCCNC(=O)c1cc2ccccc2oc1=O,-16,-2.7,-7,31%,0.68,0.4,-0.9
COc1ccc(C(NC(C)=O)c2cc(Cl)c3cccnc3c2O)cc1OC (stereo not drawn),.,-5.8,0,5%,.,3.1,0.2
CCOc1cccc2sc(NC(=O)CCS(=O)(=O)c3ccccc3)nc12,3.4,-3.0,10,-1%,0.66,1.5,1.5
COCC1CCN(Cc2nc(-c3ccc4c(c3)OCO4)no2)C1 (stereo not drawn),0.1,0.1,4,.,0.72,-1.1,1.6
Cc1csc(=Nc2ccccc2)n1Cc1ccco1,-2.3,-3.8,1,.,0.72,0.4,-0.7
O=C(NC(Cc1c[nH]c2ccccc12)C(=O)Nc1ccc(F)cc1)c1cccs1 (stereo not drawn),0.2,2.2,-4,-3%,0.67,-2.1,-1.1
C=CCn1c(SCC(=O)NCc2ccco2)nnc1-c1ccc2ccccc2n1,-3.0,-3.8,0,-2%,0.63,-5.6,0.0
COc1ccccc1CO/N=C/c1cccn1-c1nccc(N(C)C)c1C#N,.,-1.9,.,1%,.,-0.9,2.3
O=C(Nc1cccc(F)c1)C1CCCN1C(=O)OCc1ccccc1 (stereo not drawn),1.5,10,3,-3%,0.63,0.8,-0.3
CC(=O)[C@H]1[C@H](CCc2ccccc2)NC(=O)N(Cc2ccccc2)[C@@H]1C,3.5,-2.9,-1,1%,.,-0.9,-0.2
CS(=O)(=O)N1CCN(c2ccc([N+](=O)[O-])cc2C(F)(F)F)CC1,8.6,9.0,-5,-4%,0.7,-6.3,0.5
CSc1ncc(C(=O)Nc2cc(C)ccc2C)c(C)n1,2.8,4.0,-2,2%,0.66,2.7,0.2
CCCN(CC(=O)Nc1ccccc1C)C(=O)c1ccc(-c2ccccc2)cc1,0.2,2.2,-10,.,0.74,1.1,1.2
Cc1noc(C)c1S(=O)(=O)NCCN1CCN(c2ccccc2)CC1,-0.6,-2.6,19,2%,0.71,1.2,0.9
Cn1c(SCC(=O)Nc2sccc2C#N)nnc1C1CC1,1.9,3.5,-1,.,0.68,-3.7,1.4
CCOc1ccc(S(=O)(=O)N2CCC(C(=O)NCCc3ccccc3)CC2)cc1,-0.1,-0.8,4,.,0.66,-1.1,0.8
CC(=O)Oc1ccc(-c2cccc(C(=O)OCC(=O)N(C)c3ccccc3)c2)cc1,5.2,2.5,14,18%,0.69,-0.9,-0.2
O=C1C2C3C=CC(C3)C2C(=O)N1c1ccc2c(c1)CCC2 (stereo not drawn),1.6,-2.7,8,-7%,0.68,-22,0.1
COc1ccc(C)cc1S(=O)(=O)Nc1cccc(SC)c1,-3.1,-1.8,1,-4%,0.74,-1.6,0.6
COc1ccc(-c2csc(NC(=S)NC(=O)/C=C/c3ccco3)n2)cc1OC,7.7,7.4,-3,26%,0.68,0.2,0.7
O=C(c1ccc(N2CCOCC2)cc1)c1cccs1,7.0,-0.3,-4,-6%,0.68,1.1,-4.8
COc1ccc(OCC(=O)OCCNC(=O)c2cccnc2)cc1,0.0,-2.9,-3,-7%,0.69,0.8,1.2
O=C(COc1ccc(Cl)cc1)Nc1ccc2c(c1)nc1n2CCOC1,1.6,0.1,-13,.,0.63,-0.6,-0.1
CC(=O)c1ccc(Oc2cc(C)nc(-n3nc(C)cc3C)n2)cc1,4.2,1.3,10,-3%&-1%,0.73,0.5,-0.4
